Screens (PubChem BioAssay)
NPYLR7 agonist – mosquito NPYLR7 agonism | HEK293T NPYLR7/Galpha15, GCaMP6s calcium fluorescence | activation, % at 10 µM | 270,000 compounds, 0.15% hits | AID 1259423; in the data active = activation above about 40%;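 also: 0% = vehicle and 100% = reference agonist at the receptor; some compounds past the cut are filed as inactive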
NPYLR7 agonist max-min – further read-out of NPYLR7 agonist, marked with its call; activation, %; measured here: Max-Min RFU normalised activation; some inactives read as strong as hits;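 span of the calcium signal over five minutes; 0% = vehicle and 100% = native peptide agonist; compound fluorescence can raise it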
Active calls of the source: *; & = joins results of further samples. Only part of the results is shown; the hit share may differ from the screen's.

| SMILES | NPYLR7 agonist | NPYLR7 agonist max-min |
| --- | --- | --- |
| Cc1ccc(Sc2ccc(S(N)(=O)=O)cn2)c(C)c1 | 6 | 6 |
| C=CCN(CC(=O)N(Cc1ccc(F)cc1)Cc1ccc(C)s1)C(=O)c1ccc(OC)cc1 | -3 | 2 |
| O=C(CCN1CCCO1)N1CCC(Cc2nncn2-c2ccccc2)CC1 | -1 | 0 |
| CCc1nc2ccc(C(=O)N(C)Cc3ccco3)cn2c1N(CC)C(=O)CCC1CCCC1 | 1 | 22 |
| CN(Cc1ccc2c(c1)OCO2)C(=O)C1CCCN1C(=O)C1CCCCC1 (centres undefined) | -9 | -17 |
| CCOC(=O)c1nnc2n(c1=O)CCN2c1ccc(F)cc1 | -5 | -2 |
| NC(=O)c1ccc(NC(=O)C2CC2c2ccc(F)cc2F)cc1F (centres undefined) | -2 | -4 |
| CCCCn1c(=O)n(Cc2ccccc2F)c(=O)c2[nH]c(Cc3ccc(NC(C)=O)cc3)nc21 | 0 | -5 |
| c1ccc2c(c1)CN(CCCNCc1cccc3c1OCCO3)C2 | 2 | 0 |
| CCOC(=O)C1CCCN(C(=O)C(Cc2ccccc2)N2CC3=C(C2=O)C(c2ccc(Cl)cc2)NC(=O)N3C)C1 (centres undefined) | -1 | 5 |
| CCN(CC)CC#CCOC(=O)C(O)(c1ccccc1)C1CCCCC1 (centres undefined) | -4&-5&5 | -8&-6&-41 |
| COc1ccc(-c2[nH]ncc2CN2CCCC(CN3CCOCC3)C2)c(OC)c1 (centres undefined) | 13 | 9 |
| Cc1ccc(Cn2c3nc(C#N)c(C#N)nc3c3c(=O)[nH]c(C)nc32)cc1 | 9 | 8 |
| COc1ccc(-c2cc(C(=O)N3CCC(Cc4ccccc4)CC3)c(C)n2-c2ccc(F)cc2F)cc1 | 13 | 20 |
| COc1ccc(C)cc1NC(=O)N1CCc2ccccc2C1c1ccccc1Cl (centres undefined) | 13 | 7 |
| CCn1cc(S(=O)(=O)Nc2c(C)cc(F)cc2C(=O)O)cn1 | 8 | 3 |
| C=CCSc1nn2c(=O)c3ccccc3nc2s1 | 2 | -1 |
| Cc1nn(Cc2ccccn2)c(=O)c2c1cnn2C(C)(C)C | 3 | -1 |
| CCOc1ccccc1NC(=O)N(CC(=O)N1CC(=O)N(c2ccc(F)cc2)C1)C1CC1 | 7 | 12 |
| COc1cccc(CC2(CO)CCCN(Cc3nc(-c4cccs4)oc3C)C2)c1 (centres undefined) | 13 | 17 |
| CCOC(=O)c1ccc2c(c1)nc(SCc1cc(C(F)(F)F)cc(Cl)c1F)n2Cc1ccccn1 | -1 | -8 |
| C=CCC1=CC(=Cc2c(N)n3nc(Cc4cccs4)sc3nc2=O)C=C(OC)C1=O | 95* | 88* |
| Cc1ccc(CN(C)C(=O)CN2CCc3ccccc3C2)o1 | 3 | 3 |
| COc1ccc(C)cc1S(=O)(=O)Nc1ccc(Br)cc1 | -1 | -4 |
| CN1CCc2nc(NC(=O)c3ccc4c(c3)CCC4)sc2C1 | 10 | 6 |
| CCN(Cc1ccccc1)C(=O)Nc1ccccc1N1CCCC1 | 6 | 2 |
| CSc1nnc2nc3c(nn12)c1ccccc1n3C | 10 | 2 |
| Cc1nn2c(SC3CCc4ccc(F)cc43)nnc2[nH]c1=O (centres undefined) | 9 | -5 |
| COc1ccc(Cc2cnc(NC(=O)COc3cccc(C(F)(F)F)c3)s2)cc1 | -3 | -3 |
| CCOC(=O)C1CCN(C(=O)CCc2ccc(-c3ccc(C)cc3C)n2-c2ccc(CC#N)cc2)CC1 | -4 | 1 |
| Cn1nnc2c(SCc3c(F)cccc3Cl)ncnc21 | -1 | 22 |
| CN(C)Cc1ccc(C2CCCN2C(=O)Cc2ccccn2)cc1 (centres undefined) | 9 | 8 |
| CCCOc1ccc(-c2cc(C(=O)NCCCN3CCOCC3)c3ccccc3n2)cc1 | -8 | -11 |
| O=C(CCc1ccccc1F)N1CCN(S(=O)(=O)c2cc(F)ccc2F)CC1 | 8 | 4 |
| CCC(C)N(CC(=O)N(Cc1ccc(F)cc1)Cc1cccs1)C(=O)Nc1ccc(Br)cc1 (centres undefined) | -1 | 12 |
| CC(COc1ccccc1)NCc1nncn1C1CCCCC1 (centres undefined) | 10 | 2 |
| Cc1nc(C(F)(F)F)ccc1C(=O)NC1CC2CC1C1CCCC21 (centres undefined) | 9 | 6 |
| CCCN(CC(=O)N(CCc1ccc(OC)c(OC)c1)Cc1ccc(C)s1)C(=O)Nc1ccccc1OC | -4 | -13 |
| CCS(=O)(=O)Oc1ccccc1CN(CCOC)C(=O)Nc1ccccc1OC | 13 | 12 |
| Cc1cc(C(=O)NC(C)c2cc(C)sc2C)n2ncc(C(N)=O)c2n1 (centres undefined) | 1 | -3 |

Single records, from the list above.
Profile of COc1ccc(C)cc1S(=O)(=O)Nc1ccc(Br)cc1 → NPYLR7 agonist = -1; NPYLR7 agonist max-min = -4
Profile of Cc1nc(C(F)(F)F)ccc1C(=O)NC1CC2CC1C1CCCC21 (centres undefined) → NPYLR7 agonist = 9; NPYLR7 agonist max-min = 6
Profile of CC(COc1ccccc1)NCc1nncn1C1CCCCC1 (centres undefined) → NPYLR7 agonist = 10; NPYLR7 agonist max-min = 2

(further entries)
| SMILES | NPYLR7 agonist | NPYLR7 agonist max-min |
| --- | --- | --- |
| Cc1ccc(S(=O)(=O)N2CCCC(C3OCCO3)C2)c(Cl)c1 (centres undefined) | 1 | -22 |
| Cn1ccnc1C(NC(=O)COc1ccc(F)cc1)c1ccccc1F (centres undefined) | 1 | 3 |
| CC(NC(=O)Cc1csc(-c2cccs2)n1)c1ccccc1Cl (centres undefined) | 2 | 5 |
| CC(C)OCCCNC(=O)c1cc2c(=O)n(C)c(=O)n(C)c2n1Cc1ccco1 | 0 | -1 |
| c1ccc(Oc2ccc3nc(NC4=NCCCCC4)sc3c2)cc1 | 3&-2 | 6&-3 |
| Cc1oc(C(C)(C)C)cc1C(=O)N1CCN(Cc2cc(=O)c(OCc3ccc(-c4ccccc4C#N)cc3)co2)CC1 | 15 | 4 |
| O=C(N1CCC(Cn2cccn2)CC1)C1(c2ccccc2)CCOCC1 | -3 | -4 |
| O=C(c1ncc[nH]1)N1CCCCC1CCc1cccc(O)c1 (centres undefined) | 23 | 18 |
| CC(=O)NCCc1c[nH]c2ccc(O)cc12 | 7&-3 | -9&-11 |
| COCCC1NC(=O)/C(=C\N(C)C)C1=O (centres undefined) | 8 | 0 |
| CN(C)c1ccc([N+](=O)[O-])cc1/C=C(\C#N)c1nn(-c2ccccc2)c(N)c1C#N | -2 | -6 |
| O=C(CSc1ncnc2sc3c(c12)CCCC3)N1CCCC1 | 6 | 4 |
| C=CCNC(=O)c1ccc(OC)c(S(=O)(=O)NC2CCCCC2C)c1 (centres undefined) | -1 | -4 |
| FC(F)(F)c1ccc(SCc2csc(-c3ccc(Cl)cc3)n2)nc1 | 25 | 29 |
| O=C(CC1CC2CCC1C2)Nc1ccc2ncccc2c1 (centres undefined) | 3 | 2 |
| Cc1ccc2nc(C)c(NC(=O)C3CCCC3)c(=O)n2c1 | 2 | 0 |
| Cc1noc(C)c1C(=O)NC(C)Cc1ccc(N(C)C)cc1 (centres undefined) | -30 | -27 |
| Cc1noc(C)c1C(C)CC(=O)O (centres undefined) | -4 | 528 |
| O=C(O)CN1C(=O)/C(=C\c2ccc(OCc3ccc(Cl)cc3Cl)cc2)SC1=S | 6 | 2 |
| CC1=C(/C=C/C(C)=C/C=C/C(C)=C/C(=O)Nc2ccc(O)cc2)C(C)(C)CCC1 | -3 | -19 |
| CC1CCCCN1C(C)CNC(=S)NC1CC1 (centres undefined) | 2 | 2 |
| O=C1N2CCSC2=NC1(Nc1ncccn1)C(F)(F)F (centres undefined) | 5 | 2 |
| CC(NC(=O)NCc1ccc(S(=O)(=O)N2CCOCC2)s1)c1cccc(Cl)c1 (centres undefined) | 5 | 2 |
| COC(=O)c1cccc(CNC(=O)CC2c3cccnc3C(=O)N2c2c(C)cccc2C)c1 (centres undefined) | 1 | 1 |
| Cc1cc(C(=O)Cn2cnc3c2c(=O)n(C)c(=O)n3C)c(C)n1Cc1ccco1 | 9 | 9 |
| CC1CN(CC(O)CN2CCCCC2Cn2cccn2)CC(C)O1 (centres undefined) | 4 | 0 |
| O=C(O)c1ccccc1C(=O)NCCc1c(C(=O)O)[nH]c2ccc([N+](=O)[O-])cc12 | 4 | 4 |
| CCCCCc1ccc(C(=O)N(CC(=O)N2CCc3sccc3C2c2ccccc2C)CC2CCCO2)cc1 (centres undefined) | -1 | 3 |
| COc1ccc2c(=O)c3c(=O)n(-c4ccccc4)c(C(C)C)nc3oc2c1 | 9 | 7 |
| COc1ncc(-c2nccn2CC(C)c2ccccc2)cn1 (centres undefined) | 27 | 23 |
| COc1cc(C)c(NC(=O)Cc2c(C)nc3nc(SC)nn3c2C)cc1OC | 2 | 1 |
| CC(C)COC(=NCCCN1CCOCC1)NC(=O)c1cccc(C(F)(F)F)c1 | 24 | 23 |
| O=C(/C=C/c1ccc(Cl)cc1)NC1CCN(CC2CCOC2)CC1 (centres undefined) | -6 | -5 |
| CNC(=O)C(C)N(C)Cc1nc2ccccc2n1CC(C)C (centres undefined) | 20 | 6 |
| COc1ccc(N2CCN(C(=O)C3CCC3)C(C)C2=O)cc1OC (centres undefined) | -9 | -4 |
| O=C(NC(CC(=O)N1CCC1)c1ccccc1)c1ccccc1Cl (centres undefined) | 2 | 5 |
| CCOC(=O)C1(Cc2ccccc2C)CCCN(C(=O)c2ccc(COC)o2)C1 (centres undefined) | -10 | -12 |
| O=C1CCc2ccc(OC(F)(F)F)cc21 | 19 | 19 |
| O=C(CCC1CCCN(Cc2cccc(O)c2)C1)NCc1ccccc1Cl (centres undefined) | 3 | -1 |
| COc1ccccc1CN1C(=O)C2CC=CCC2C1=O (centres undefined) | 0 | 0 |
| CCCCN(C)C(=O)c1sc(=O)n(Cc2ccc(C(=O)N(C)C)cc2)c1C | -1 | -4 |
| CCN(CCC#N)S(=O)(=O)/C=C/c1ccccc1Cl | -3 | -2 |
| CCOc1ccc(NS(=O)(=O)c2cc(N3C(=O)CCC3=O)ccc2OC)cc1 | 3 | 3 |
| Cc1cc(C)nc(CN(C)C(=O)c2coc(COc3cccc(F)c3F)n2)c1 | -7 | -17 |
| N#CC(C(=O)NC1CCCCC1)C(=O)C1CC2CCC1C2 (centres undefined) | -1 | -2 |
| COc1ccc(OC)c(CN(Cc2ccc3c(c2)OCO3)Cc2nc(C(=O)O)co2)c1 | 14 | 16 |
| COc1ccc(CCOC(=O)C2CCCCN2C(=O)c2cc(F)ccc2C(F)(F)F)cc1OC (centres undefined) | -5 | -8 |
| CCOC(=O)c1ccccc1NC(=O)CSc1nc2c(-c3ccccc3)c[nH]c2c(=O)n1CC | 3 | -2 |
| O=C(C=Cc1ccccc1)N=C1N=C2C=CC(I)=CN2Cc2ccccc21 | -2 | -6 |
| COc1ccc(OC)c(NC(=O)CSc2nc3c(-c4ccccc4)c[nH]c3c(=O)n2C(C)C)c1 | -5 | -9 |
| O=C(Cc1ccccc1)Nc1ccnn1C1CCN(Cc2nc3ccccc3s2)CC1 | 1&-1 | -3&-4 |
| Cc1ccccc1N1CCCN(Cc2cnc(N3CCCC3)s2)CC1 | 3 | 0 |
| COc1ccc(-c2cc(C(=O)N(C)CCc3ccc(OC)c(OC)c3)c(C)n2-c2ccc(F)cc2F)cc1 | 15 | 23 |
| Cc1ccccc1-n1c(C)c(C#N)c(=O)c(-[n+]2ccccc2)c1S | -3 | -11 |
| CC(=O)Nc1cccc(NS(=O)(=O)c2c(C)n(C)c(=O)n(C)c2=O)c1 | -1 | -2 |
| Cc1nn(CC(=O)NCCc2ccccc2)c(C)c1[N+](=O)[O-] | -14 | -15 |
| CN(CC(=O)N1CCN(Cc2c(F)cccc2Cl)CC1)Cc1nc2ccccc2s1 | 5 | 0 |
| COc1ccc(-c2nc(N3CCN(C(=O)c4ccc(C(F)(F)F)cc4)CC3)c3ccccc3n2)cc1 | 4 | 14 |
| Cc1ccccc1-c1ncc(CN(C)C(C)c2ccon2)s1 (centres undefined) | 17 | 3 |
| O=C(O)c1[nH]ncc1CN1CCNC(=O)C1c1ccc(F)cc1 (centres undefined) | -5 | -6 |

The list goes on:
| SMILES | NPYLR7 agonist | NPYLR7 agonist max-min |
| --- | --- | --- |
| O=C(CSc1nc2ccccc2[nH]1)N/N=C\c1ccccc1F | 12 | 12 |
| O=C(CCC1CCCN(C(=O)Cc2ccccc2F)C1)N1CCN(c2ccccn2)CC1 (centres undefined) | 7 | -3 |
| CCNC(=O)NCCn1nc(-c2ccccc2)n(C)c1=O | 4 | 2 |
| Cc1ccc(OCC(=O)NCC(c2ccc(N(C)C)cc2)N2CCN(C)CC2)cc1 (centres undefined) | 5 | 2 |
| CCOC(=O)N1CCC(Nc2ncnc3sc4c(c23)CCCCC4)CC1 | -3 | -3 |
| CCOC(=O)N1CCN(C(=O)CCc2cc3c(n2-c2ccc(C)cc2F)-c2ccccc2OC3)CC1 | 1 | -3 |
| CC(C)(C)c1ccnc2nc(N3CCN(S(=O)(=O)c4ccccc4Cl)CC3)nn12 | 3 | -5 |
| O=C(NCCn1ncc2c(N3CCCC3)ncnc21)c1ccco1 | 0 | -2 |
| O=C(NCCCOCc1ccco1)NC1CCSc2ccccc21 (centres undefined) | 14 | 12 |

Quoted at random: six records from the list, in no set order.
| SMILES | NPYLR7 agonist | NPYLR7 agonist max-min |
| --- | --- | --- |
| O=C(CCC1CCCN(C(=O)Cc2ccccc2F)C1)N1CCN(c2ccccn2)CC1 (centres undefined) | 7 | -3 |
| CCOC(=O)N1CCN(C(=O)CCc2cc3c(n2-c2ccc(C)cc2F)-c2ccccc2OC3)CC1 | 1 | -3 |
| Cc1ccc(OCC(=O)NCC(c2ccc(N(C)C)cc2)N2CCN(C)CC2)cc1 (centres undefined) | 5 | 2 |
| CC(C)(C)c1ccnc2nc(N3CCN(S(=O)(=O)c4ccccc4Cl)CC3)nn12 | 3 | -5 |
| O=C(CSc1nc2ccccc2[nH]1)N/N=C\c1ccccc1F | 12 | 12 |
| O=C(NCCCOCc1ccco1)NC1CCSc2ccccc21 (centres undefined) | 14 | 12 |
